# Source: PubChem BioAssay
# CCR6 antag – blocks CCL20-driven beta-arrestin recruitment at human CCR6 | P51684 | CHO-K1 CCR6 PathHunter beta-arrestin, luminescence, CCL20-stimulated | inhibition, % at 20 µM | 340,000 compounds, 0.49% hits | AID 493098;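 active = compounds whose inhibition of the agonist-driven luminescence signal at 20 µM reaches about 50%, limit read from the data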;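 note: cells stimulated with CCL20 at 14 nM final; plate controls were DMSO with CCL20 for no effect and DMSO without agonist for full effect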
# APJ antagonist – antagonists of human APJ apelin receptor | 330,000 compounds, 0.32% hits | P35414 | CHO-K1 APJ beta-arrestin complementation, luminescence | AID 2521 | inhibition, % at 20 µM;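 active = inhibition above about 40% at 20 µM, limit read from the data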;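 note: cells challenged with 10 nM apelin-13 agonist together with compound; plate controls were apelin-13 plus DMSO wells for no effect and DMSO wells lacking apelin-13 for full effect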
# EBI2 block – blocks human EBI2 receptor beta-arrestin signaling. P32249. EBI2 beta-arrestin recruitment, luminescence, 7a,25-OHC stimulated. inhibition, % at 5 µM. 360,000 compounds, 0.81% hits; in the data active = inhibition above about 38%;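 note: enzyme fragment complementation signal reports receptor beta-arrestin coupling in cells; 0% = agonist plus DMSO wells and 100% = wells without agonist; some results beyond the cut were filed as inactive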
# UBC13 inh – blocks human UBC13 polyubiquitin chain formation. 330,000 compounds, 0.47% hits. P61088. inhibition, % at 20 µM. TR-FRET. AID 485273; in the data active = inhibition above about 45%, passing the limit was not always enough
# CXCR6 inh – blocks human CXCR6 beta-arrestin recruitment. 360,000 compounds, 0.36% hits. O00574. inhibition, % at 20 µM. CHO-K1 PathHunter CXCR6 beta-arrestin, luminescence; in the data active = inhibition above about 34%, passing the limit was not always enough;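 note: antagonist mode with CXCL16 agonist at 10 nM final; 0% = 10 nM CXCL16 with DMSO and 100% = unstimulated wells without agonist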
# Target sequence (O00574 whole entry, looked up): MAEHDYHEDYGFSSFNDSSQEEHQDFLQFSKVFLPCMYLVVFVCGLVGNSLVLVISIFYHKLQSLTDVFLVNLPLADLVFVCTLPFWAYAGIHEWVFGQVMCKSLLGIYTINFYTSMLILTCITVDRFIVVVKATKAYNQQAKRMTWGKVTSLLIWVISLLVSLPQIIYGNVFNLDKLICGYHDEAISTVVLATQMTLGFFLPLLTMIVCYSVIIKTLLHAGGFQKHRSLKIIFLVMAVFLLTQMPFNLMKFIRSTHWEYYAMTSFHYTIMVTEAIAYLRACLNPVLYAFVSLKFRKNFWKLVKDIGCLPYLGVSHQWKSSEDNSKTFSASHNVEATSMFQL
# * = called active by the depositor; · = not tested or not shown; & = joins results of further samples. Some of the compounds tested (hit frequency here may not be typical).
CCR6 antag	APJ antagonist	EBI2 block	UBC13 inh	CXCR6 inh	Compound
8	19	-3	27	-8	CN(C)CCCN1c2ccccc2Sc2ccc(C(F)(F)F)cc21
4	·	-10	·	3	Nc1ccn([C@@H]2O[C@H](CO)[C@@H](O)[C@H]2O)c(=O)n1
-10	4	-3	-21	-2	CN/C(=C\[N+](=O)[O-])NCCSCc1ccc(CN(C)C)o1
27	9	12	-4	3	Cc1ccc(NC(=O)c2sccc2SCc2cccc(C(F)(F)F)c2)cc1
16	-9	-5	11	-4	NS(=O)(=O)c1ccc(NC(=O)Nc2ccc(Cl)cc2)cc1
8	-11	-3	-10	1	O=C(N/N=C/c1ccc(Sc2ccccn2)o1)c1cccc([N+](=O)[O-])c1
9	·	-6	·	0	Nc1nc(Cl)c(N)c(NCC2(CO)CC(CCc3ccccc3)C2)n1 (stereo not given)
3	4	10	2	4	CC[C@]12CCCN3CCc4c(n(c5ccccc45)C(=O)C1)[C@@H]32
1	2	5	4	1	Cc1ccc(/C(=C\CN2CCCC2)c2ccccn2)cc1
12	6	·	-5	·	CC[C@]12CCCN3CCc4c(n(c5ccccc45)C(=O)C1)C32 (stereo not given in full)
28	21	10	18	-12	Cc1ccc(NC(=O)c2ccc(CN3CCN(C)CC3)cc2)cc1Nc1nccc(-c2cccnc2)n1
10	2	-4	-6	2	Cc1noc(NS(=O)(=O)c2ccc(N)cc2)c1C
3	15	-2	-11	0	NS(=O)(=O)c1cc(C(=O)O)c(NCc2ccco2)cc1Cl
14	·	7	·	-17	CC(=O)C1CCC2C3CCC4CC(=O)CCC4(C)C3C=CC12C (stereo not given)
21	11	20	53*	11	CC[C@H]1CN2CCc3cc(OC)c(OC)cc3C2C[C@@H]1C[C@H]1NCCc2cc(OC)c(OC)cc21 (stereo not given in full)
16	·	-13	·	-6	COc1cc(C2C3=C(COC3=O)Oc3cc4c(cc32)OCO4)cc(OC)c1OC (stereo not given)
11&3	5	-2&1	4	-7&-2	CN(Cc1cnc2nc(N)nc(N)c2n1)c1ccc(C(=O)N[C@@H](CCC(=O)O)C(=O)O)cc1
5	27	-3	5	-5	C[N+]1(C)CCC(OC(=O)C(O)(c2ccccc2)C2CCCC2)C1 (stereo not given)
11	·	-18	·	-8	C#CC1(O)CCC2C3CCC4=C(CCC(=O)C4)C3CCC21C (stereo not given)
11	17	-9	26	1	COc1cccc(C(=O)Nc2cc3c(cc2N2CCOCC2)n(C)c(=O)n3C)c1
6	23	-13	-1	-1	CN1CCN(C(=O)c2ccc(NS(=O)(=O)c3ccccc3)cc2)CC1
-5	-3	-2	-15	-2	CC(C)n1c(/C=C/[C@H](O)C[C@H](O)CC(=O)O)c(-c2ccc(F)cc2)c2ccccc21
16	9	24	11	7	CC[C@H]1CN2CCc3cc(OC)c(OC)cc3[C@@H]2C[C@@H]1C[C@H]1NCCc2cc(OC)c(OC)cc21

# Gathered by group, the compounds so far with an aryl thioether with sulfur outside any ring
CCR6 antag	APJ antagonist	EBI2 block	UBC13 inh	CXCR6 inh	Compound
27	9	12	-4	3	Cc1ccc(NC(=O)c2sccc2SCc2cccc(C(F)(F)F)c2)cc1
8	-11	-3	-10	1	O=C(N/N=C/c1ccc(Sc2ccccn2)o1)c1cccc([N+](=O)[O-])c1

# An excerpt from above in order of molecular weight, lowest first:
CCR6 antag	APJ antagonist	EBI2 block	UBC13 inh	CXCR6 inh	Compound
4	·	-10	·	3	Nc1ccn([C@@H]2O[C@H](CO)[C@@H](O)[C@H]2O)c(=O)n1
3	4	10	2	4	CC[C@]12CCCN3CCc4c(n(c5ccccc45)C(=O)C1)[C@@H]32
14	·	7	·	-17	CC(=O)C1CCC2C3CCC4CC(=O)CCC4(C)C3C=CC12C (stereo not given)
5	27	-3	5	-5	C[N+]1(C)CCC(OC(=O)C(O)(c2ccccc2)C2CCCC2)C1 (stereo not given)
16	-9	-5	11	-4	NS(=O)(=O)c1ccc(NC(=O)Nc2ccc(Cl)cc2)cc1
